Marburg entry inh: qHTS for inhibitors of binding or entry into cells for Marburg Virus | AID 540276, 2011 | Marburg virus pseudotyped entry inhibition, cell reporter; control for the full effect not named in the record; about a third of the inactives were read at about 46 µM | Potency, µM (titrated, usually from 37.8 µM), inactives show at the highest dose activity change, negative = inhibition, hits mostly inhibitors | actives 1.8% (n = 300,000); active = well fitted inhibition curve with a large enough effect; inconclusive = small, poorly fitted or top-dose-only effect, or effect the other way; inactive = flat fitted curve, though single readings scatter; tested in HEK293 cells; about a fifth of its hits are not listed in these tables; note: % is set by controls: 0 for no effect and ±100 for the full control effect; luciferase read-out
RE007 growth inh: qHTS Assay for Inhibitors of the HIV-1 protein Vpr; S. pombe RE007 Vpr strain, BacTiter-Glo ATP luminescence, 24 h; control for the full effect not named in the record; Potency, µM (highest dose often 92.2 µM), for inactives: at the highest dose activity change, negative = less growth; actives 0.21% (n = 360,000); AID 651644, 2012; active = well fitted falling curve with a large enough effect; inconclusive = small, poorly fitted or top-dose-only effect; inactive = no such curve, though single readings can be large or run the other way;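 note: % is set by controls: 0 for no effect and ±100 for the full control effect; nearly all actives have a fitted effect of over 50% in size; the assay follows cell death caused by Vpr and the record does not say whether a fall means rescue or toxicity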
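Fission yeast RE007 carrying one integrated HIV-1 vpr copy, seeded at OD 0.01 in PMG+AL medium with 23 nL pinned compound. Grown 24 h at 30 degrees; viability read by BacTiter-Glo luminescence after 5 min.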
Lassa entry inh: qHTS for Inhibitors of binding or entry into cells for Lassa Virus; actives 1.2% (n = 300,000); Lassa virus pseudotype entry inhibition, cell reporter; control for the full effect not named in the record; Potency, µM (series often up to 37.9 µM), for inactives: at the top dose activity change, negative = inhibition, most hits filed as inhibitors; active means well fitted inhibition curve with a large enough effect; inconclusive means small, poorly fitted or top-dose-only effect, or effect the other way; inactive means flat fitted curve, though single readings scatter; tested in HEK293 cells; note: % is set by controls: 0 for no effect and ±100 for the full control effect; nearly all actives have a fitted effect of over 50% in size; luciferase read-out
Cruzain inh Det: qHTS Assay for Promiscuous and Specific Inhibitors of Cruzain (with detergent); actives 0.43% (n = 200,000); Potency, µM, for the others: max response, negative = inhibition, most hits filed as inhibitors; purified cruzain, Z-FR-AMC fluorescence, 0.01% Triton; Cruzipain (Trypanosoma cruzi), P25779; active = well fitted curve in the direction sought with a large enough effect; inconclusive = small, poorly fitted or top-dose-only effect, or another doubt; inactive = no such curve, though single readings can be large; an effect the other way counts as inactive or inconclusive;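 note: plate controls were neutral wells for no effect and buffer without enzyme for full effect; nearly all actives have a fitted effect of over 40% in size; top concentration of the series not given in the record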
Target sequence (P25779 123-467 limits assumed): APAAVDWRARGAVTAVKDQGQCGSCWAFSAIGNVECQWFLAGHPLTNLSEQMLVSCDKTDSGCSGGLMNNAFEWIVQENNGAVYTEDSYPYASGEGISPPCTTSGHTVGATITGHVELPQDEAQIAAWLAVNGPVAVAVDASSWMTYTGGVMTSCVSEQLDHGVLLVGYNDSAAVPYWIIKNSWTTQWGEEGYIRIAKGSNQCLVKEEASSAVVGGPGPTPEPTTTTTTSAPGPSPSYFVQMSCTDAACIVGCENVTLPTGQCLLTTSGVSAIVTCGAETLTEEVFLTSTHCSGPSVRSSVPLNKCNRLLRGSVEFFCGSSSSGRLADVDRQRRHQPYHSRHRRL
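15 min RT preincubation of 1.5 nM cruzain with compound, then 2 uM Z-FR-AMC added; kinetic AMC fluorescence, 60 s delta. Triton X-100 0.01%, pH 5.5.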
StopGo reporter: High Throughput Screening for Foot and Mouth Disease Virus Antivirals; human cells with a luciferase reporter of 2A StopGo recoding; control for the full effect not named in the record; Potency, µM (doses to about 57.9 µM), for the others: at the highest dose signal change, negative = less light; actives 1.2% (n = 410,000); AID 1159524, 2015; active = well fitted falling curve with a large enough effect; inconclusive = small, poorly fitted or top-dose-only effect; inactive = no such curve, though single readings can be large or run the other way; tested in HEK293T cells; note: % is set by controls: 0 for no effect and ±100 for the full control effect; nearly all actives have a fitted effect of over 45% in size; luciferase light after 4 h
NS1 inh: qHTS Assay for Inhibitors of Influenza NS1 Protein Function; S. cerevisiae slowed by influenza A NS1, growth recovery by OD600; Potency, µM (top dose mostly 46.1 µM), for the others: at the top dose activity, positive = more growth; AID 2326, 2010; actives 0.4% (n = 270,000); note: actives are rising curves; nearly all actives have a fitted effect of over 50% in size
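Read-out: OD600 growth recovery of NS1-expressing budding yeast. Cells grown overnight at 30C in -URA glucose medium, washed, resuspended and diluted 1:100 in 2% galactose assay medium, pH 6.0. Same strain lacking NS1 served as positive control.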
Cruzain noTriton: qHTS Assay for Promiscuous and Specific Inhibitors of Cruzain (without detergent); Cruzipain (Trypanosoma cruzi), P25779; purified cruzain, Z-FR-AMC fluorescence, no detergent; Potency, µM, without a hit: max response, negative = inhibition, hits mostly inhibitors; actives 2.3% (n = 200,000); AID 1476, 2009; active = well fitted curve in the direction sought with a large enough effect; inconclusive = small, poorly fitted or top-dose-only effect, or another doubt; inactive = no such curve, though single readings can be large; an effect the other way counts as inactive or inconclusive;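 note: plate controls were enzyme without inhibitor for no effect and buffer without enzyme for full effect; nearly all actives have a fitted effect of over 40% in size; top concentration of the series not given in the record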
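Detergent-free condition (0.00005% Triton X-100) in acetate buffer pH 5.5 with DTT. 1.5 nM enzyme and compound were pre-mixed 15 min, then 2 uM Z-FR-AMC substrate added; reaction progress from fluorescence change between first and third reads (60 s).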
SARS PLpro yeast: qHTS of Yeast-based Assay for SARS-CoV PLP; actives 0.19% (n = 330,000); S. cerevisiae expressing SARS-CoV PLpro, growth rescue; control for the full effect not named in the record; Potency, µM (highest dose often 32.9 µM), for inactives: at the highest dose activity, positive = growth rescue; note: 0% is about no effect; nearly all actives have a fitted effect of over 55% in size; growth read by luminescence after 48 h
Starred values were filed as active, the others as inactive; ? = inconclusive; · = no result given; & = joins results of further samples; [ ] = another dose, or the depositor's remark. Unless noted, calls come from the whole dose curve; as a rule, active means well fitted rising curve with a large enough effect; inconclusive means small, poorly fitted or top-dose-only effect; inactive means no such curve, though single readings can be large or run the other way. Potency is the fitted concentration of half-maximal effect.

Structure	SARS PLpro yeast	StopGo reporter	Marburg entry inh	RE007 growth inh	Cruzain inh Det	NS1 inh	Cruzain noTriton	Lassa entry inh
O=C1OC(C(=O)Nc2ccccc2)Cc2ccccc21 (stereo not drawn)	1%	35%[activator]	?	7%	·	·	·	26%
COc1ccc(OC)c(NS(=O)(=O)c2ccc(-n3cccn3)cc2)c1	·	0%&20%	·	-13%	-6.6%	·	-3%	-22%[46.1 µM]
CCOCCCNC(=O)c1ccc2c(c1)NC(=O)C(CS(=O)(=O)Cc1ccc(F)cc1Cl)N2 (stereo not drawn)	·	?	·	·	1.8%	·	-3%	26%[46.1 µM]
O=C(COc1coc(CN2CCN(c3ccc(F)cc3)CC2)cc1=O)Nc1ccccc1	1%	-30%	-10%	5%	·	·	·	5%
COc1ccc(S(=O)(=O)Nc2ccccc2C(=O)OC2CCCN(C)C2)cc1OC (stereo not drawn)	3%	9%	2%&3%	6%	3.3%	-8%	-3%	2%
COc1ccc(C2C(C(C)=O)=C(O)C(=O)N2c2ccc(Br)cn2)cc1 (stereo not drawn)	-1%	-13%	10%	0%	5.5%	24%	-7%	18%
CCOC(=O)c1cc2c(C)n(-c3ccc(OCC)cc3)c(C)c2ccc1=O	-13%	40µM*	?	20%	-8.5%	-14%	-2%	?
CN1CCN(Cc2c(C#N)c3ccccc3n2C)CC1	-8%	-5%	-2%&-2%	-3%	0.5%	-6%	8%	11%
CCOC(=O)c1c(NC(=O)CSc2nnc(-c3c[nH]c4ccccc34)n2C)sc2c1CCCC2	-13%	?	?	4%	-3.2%	-5%	?	-2%
O=C(Cn1ncn2c(cc3sccc32)c1=O)NCCc1ccccc1	·	-7%	?	·	-0.1%	·	-8%	·
COc1ccccc1NC(=O)COC(=O)Cn1cnc2c1c(=O)n(C)c(=O)n2C	-1%	-5%	-1%	-23%	·	·	·	4%
NC(=O)c1ccccc1NC(=O)Nc1cccc(Cl)c1Cl	-3%	18%	?	-2%	2.4%	-2%	19%	-4%
CCOc1ccccc1NC(=O)Cn1c(=O)n(-c2ccc(F)cc2)c(=O)c2c3c(sc21)CN(C(C)=O)CC3	·	-7%	-21%[46.1 µM]	·	2.4%	·	?	·
CN=c1scc(-c2ccc(Cl)cc2)n1C	1%	-5%	-7%	-13%	-2.6%	10%	-7%	11%
O=C(NCc1nnc(SCC(=O)N2CCCCCC2)o1)c1ccco1	8%	-18%	-1%[46.1 µM]	8%	-2.2%	1%	-6%	12%
COc1ccccc1Nc1nnc(SCC(=O)c2c(N)n(C3CC3)c(=O)[nH]c2=O)s1	-14%	-14%	1%[46.1 µM]	4%	·	·	·	-26%[46.1 µM]
Cc1ccc2c(c1)N(C(=O)CCC(=O)NCc1ccccc1)CC(C)O2 (stereo not drawn)	8%	-2%	·	-1%	·	-7%	·	·
CCOc1ccc(C(=O)NC(C)C2COc3ccccc3O2)cc1 (stereo not drawn)	-1%	38%[activator]	5%[46.1 µM]	0%	·	2%	·	-15%
CC(=O)N1CCN(c2ccc(NS(=O)(=O)c3ccc(C)cc3)cc2)CC1	2%	-1%	3%[46.1 µM]	9%	·	-3%	·	12%
Cc1ccc(-c2nc(CS(=O)(=O)CC(=O)NCc3ccc4c(c3)OCO4)c(C)o2)cc1	2%	-3%	·	6%	·	8%	·	·
O=C(OCc1cccc(C(F)(F)F)c1)c1ccc[nH]c1=O	2%	3%	9%[46.1 µM]	5%	·	-13%	·	0%[46.1 µM]
N#CCCn1cc(C(=O)N2CCCCC2)c(-c2ccc([N+](=O)[O-])cc2)n1	-1%	0%	0%	-11%	·	0%	·	-5%
Cc1ccc(N2CC(C(=O)N3CCN(Cc4ccc5c(c4)OCO5)CC3)CC2=O)cc1 (stereo not drawn)	0%	3%	6%[46.1 µM]	-3%	·	-1%	·	-12%
O=C(c1ccco1)N1CCN(C(c2ccccc2)c2nnnn2C2CCCC2)CC1 (stereo not drawn)	-3%	-10%	-4%	-13%	0.4%	-6%	6%	-3%
CC(c1ccccc1)N1CCN(C(=O)CCl)CC1 (stereo not drawn)	4%	?	?	-8%	·	·	·	?
O=C(NCc1ccco1)c1ccc2c(c1)N(Cc1ccc(F)cc1)C(=O)c1ccccc1S2(=O)=O	·	-6%	?	·	-2.3%	·	-21%	?
Cc1ccccc1NC(=O)CSc1n[nH]c(-c2ccccn2)n1	3%	-8%	?	7%	·	-8%	·	?
Cn1c2ccccc2c2nn(-c3ccccc3)c(=O)cc21	-2%	20%	-7%&-7%&-7%	-10%	-2.6%	-5%	4%	-1%
CC(C)OCCCN1C(=O)c2[nH]nc(-c3ccccc3O)c2C1c1cccc(Cl)c1 (stereo not drawn)	-8%	?	?	-1%	-14%	·	8%	?
COc1ccc(N2CCN(C(=O)CSc3nnc(NC(=O)C4CCC4)s3)CC2)cc1	0%	-1%	-5%[46.1 µM]	9%	·	2%	·	1%

Structures listed so far with a furan ring, fused or not:
Structure	SARS PLpro yeast	StopGo reporter	Marburg entry inh	RE007 growth inh	Cruzain inh Det	NS1 inh	Cruzain noTriton	Lassa entry inh
O=C(NCc1nnc(SCC(=O)N2CCCCCC2)o1)c1ccco1	8%	-18%	-1%[46.1 µM]	8%	-2.2%	1%	-6%	12%
O=C(c1ccco1)N1CCN(C(c2ccccc2)c2nnnn2C2CCCC2)CC1 (stereo not drawn)	-3%	-10%	-4%	-13%	0.4%	-6%	6%	-3%
O=C(NCc1ccco1)c1ccc2c(c1)N(Cc1ccc(F)cc1)C(=O)c1ccccc1S2(=O)=O	·	-6%	?	·	-2.3%	·	-21%	?

Compound profiles, from the list above.
CC(c1ccccc1)N1CCN(C(=O)CCl)CC1 (stereo not drawn) reads SARS PLpro yeast: 4%; StopGo reporter: ?; Marburg entry inh: ?; RE007 growth inh: -8%; Cruzain inh Det: ·; NS1 inh: ·; Cruzain noTriton: ·; Lassa entry inh: ?
O=C1OC(C(=O)Nc2ccccc2)Cc2ccccc21 (stereo not drawn) reads SARS PLpro yeast: 1%; StopGo reporter: 35%[activator]; Marburg entry inh: ?; RE007 growth inh: 7%; Cruzain inh Det: ·; NS1 inh: ·; Cruzain noTriton: ·; Lassa entry inh: 26%

Next part:
Structure	SARS PLpro yeast	StopGo reporter	Marburg entry inh	RE007 growth inh	Cruzain inh Det	NS1 inh	Cruzain noTriton	Lassa entry inh
COc1ccc(C(=O)N(Cc2ccc(C(C)C)cc2)C2CCS(=O)(=O)C2)cc1 (stereo not drawn)	·	-9%	?	·	-4.6%	·	?	-29%[46.1 µM]
CC(=O)c1ccc(NC(=O)c2cc(-c3cccs3)on2)cc1	-1%	0%	30%[46.1 µM]	6%	·	12%	·	?
OC1(C#CCN2CCCC2)CCCCC1	-2%	4%	·	9%	·	11%	·	·
CCOC(=O)CC(=O)CSc1ncnc2c1nnn2-c1ccc(OC)cc1	2%	3%	25%[46.1 µM]	21%	·	·	·	-17%
Cc1c(Cl)cccc1NC(=O)C1NC(=O)CC1c1ccccc1 (stereo not drawn)	-3%	?	·	5%	0.4%	-3%	-12%	·
Cc1ccccc1N1CCN(C2CCCN(C(=O)CCN3CCCCO3)C2)CC1 (stereo not drawn)	6%	-19%	-12%	3%	·	2%	·	9%
Cc1ccc(CN2CC(C(=O)Nc3ccc(S(=O)(=O)N4CCCCC4)cc3)CC2=O)cc1 (stereo not drawn)	·	-15%	-25%	8%	·	·	·	?
CCc1ccc(N2CC(C(=O)NCc3ccc4c(c3)OCO4)CC2=O)cc1 (stereo not drawn)	2%	7%	18%	2%	1.4%	-9%	-15%	0%
CC(CO)N1CCS(=O)(=O)CC1 (stereo not drawn)	-5%	1%	2%[46.1 µM]	13%	4.7%	-4%	1%	1%
CC(C)N(CCNC(=O)c1ccc(OCC2CCCO2)cc1)C(C)C (stereo not drawn)	0%	-4%	?	12%	·	-6%	·	4%[46.1 µM]
CC(=O)Nc1cccc2c1C(=O)N(c1ccc(OC(C)=O)cc1)C2=O	0%	17%	6%[46.1 µM]	-10%	·	-2%	·	-19%
COc1ccc(C2SCC(=O)N2CCCN(C)C)cc1 (stereo not drawn)	4%	-11%	10%	-14%	1.4%	?	-10%	2%
O=C(COC(=O)c1ccc(F)cc1F)Nc1cccc(S(=O)(=O)N2CCOCC2)c1	2%	-8%	5%	8%	·	·	·	9%
O=C(O)c1cccc(N2C(=O)c3ccc(C(=O)c4cccc([N+](=O)[O-])c4)cc3C2=O)c1	5%	-4%	-4%[46.1 µM]	10%	·	-4%	·	1%[46.1 µM]
COc1ccc(N2CCN(C3CCCN(C(=O)CN4CCCCC4=O)C3)CC2)cc1 (stereo not drawn)	3%	-10%	3%[46.1 µM]	1%	·	3%	·	11%[46.1 µM]
CCCN1CCN(C(=O)CN2C(=O)CC(C)(C)S(=O)(=O)c3ccccc32)CC1	9%	13%	14%	-9%	4.5%	-3%	0%	?
CCOC(=O)C1=C(c2ccccc2)Nc2ncnn2C1c1cccc(OC)c1OC (stereo not drawn)	0%	-23%	3%	15%	1.9%	-13%	1%	-22%
CS(=O)(=O)N(CC(=O)Nc1cccnc1)c1ccc2c(c1)OCO2	3%	3%	0%	-6%	-1.2%	5%	1%	3%

High-throughput results (PubChem)
